# Assay outcomes deposited in PubChem by Broad Institute.
# DUX4 txn inh = DUX4-mediated transcription inhibition. 293T-iDUX4 ZSCAN4-Gaussia luciferase reporter, 24 h; active compounds read low. actives 0.8% (n = 37,000). activity change, negative = inhibition, % (concentration not given with the values);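 active means -10% or lower and over 25 points stronger than a control reporter; inconclusive means -10% or lower with a smaller gap; inactive means above -10%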;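 further: 0% = median of neutral control wells and -100% = median of positive control wells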
# DUX4 txn inh difference = also measured in DUX4 txn inh; calls as there; Gaussia minus Italica difference, %; measured here: selective DUX4 reporter inhibition;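 worked out from the two reporters; negative = selective loss of the DUX4 reporter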
# DUX4 txn inh control = also measured in DUX4 txn inh; calls as there; activity change, negative = inhibition, %; measured here: Italica tet-on control reporter;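 0 = neutral control and -100 = positive control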
# The depositor's hits bear a star; u = inconclusive; x = not tested or not shown.
SMILES,DUX4 txn inh,DUX4 txn inh difference,DUX4 txn inh control
O=C(C[C@H]1C=C[C@@H](NC(=O)NC2CCCCC2)[C@@H](CO)O1)NCc1ccc(F)cc1,1,-2,2.4
O=C(NC[C@@H]1[C@@H](c2ccccc2)[C@@H](CO)N1Cc1ccccn1)NC1CCCC1,-4,-2,-1.3
CNC[C@@H]1Oc2cc(Br)ccc2S(=O)(=O)N([C@H](C)CO)C[C@@H]1C,-4,-2,-1.7
CNC(=O)C[C@H]1CC[C@H]2[C@H](COc3ccc(NS(=O)(=O)c4ccc(F)cc4)cc3C(=O)N2C)O1,-2,-3,1.1
CO[C@H]1CN(C)C(=O)c2cc(NC(=O)c3ccc(Oc4ccccc4)cc3)ccc2OC[C@@H](C)NC[C@H]1C,-10,28,-38
COc1ccc(-c2ccc3n(c2=O)C[C@@H]2[C@@H](CO)[C@H](C(=O)NCC4CC4)[C@H]3N2S(C)(=O)=O)cc1,9,7,2.3
CC(C)C[C@H]1COCc2cn(nn2)CC[C@H](C)C(=O)N1,0,5,-4.7
CC=Cc1ccc2n(c1=O)C[C@H]1[C@H](CO)[C@@H](C(=O)N[C@@H](C)c3ccccc3)[C@@H]2N1CC (mixture of isomers),10,8,2.2
COc1ccc2c3c([nH]c2c1)[C@@H](CO)N(C)CC31CN(C(=O)c2ccccc2F)C1,-8,7,-16
CCCNC(=O)Nc1ccc2c(c1)C(=O)N(C)C[C@H](OC)[C@@H](C)CN(Cc1cccnc1)[C@@H](C)CO2,-7,-3,-3.5
CO[C@H]1CN(C)C(=O)c2cc(NC(=O)c3cnccn3)ccc2OC[C@H](C)N(C)C[C@H]1C,7,4,3.2
CCCNC(=O)C[C@H]1CC[C@@H]2[C@H](COC[C@@H](O)CN2CC2CCCCC2)O1,7,1,5.5
Cc1noc(C)c1S(=O)(=O)Nc1ccc2c(c1)C(=O)N([C@@H](C)CO)C[C@H](C)[C@H](CN(C)C(=O)CCC(F)(F)F)OCCCC[C@H](C)O2,-3,-3,0.0
N#C[C@H]1[C@H](c2ccccc2C2=CCCC2)[C@H](CO)N1C(=O)NC1CCCCC1,u,x,x
COc1ccc2c3c([nH]c2c1)[C@H](CO)N(C(C)=O)CC31CN(C(=O)c2cccc(F)c2)C1,-6,-14,7.5
CN1C(=O)c2cc(NC(=O)Cc3ccccc3)ccc2OC[C@@H]2O[C@@H](CC(=O)NCC3CC3)CC[C@H]21,0,0,0.1
CCCC#Cc1ccc([C@@H]2[C@H](CO)N3C(=O)CN(C(=O)Nc4ccccc4)C[C@@H]23)cc1,u,x,x
CN1c2ccc(Br)cc2[C@@H]2[C@@H](CCN2C(=O)Cc2ccccc2)[C@@H]1CO,6,2,3.7
CO[C@H]1CN(C)C(=O)c2ccc(NC(=O)c3ccc(F)cc3)cc2OC[C@@H](C)N(C)C[C@H]1C,-10,-19,8.6
COc1ccc(-c2ccc3c(c2)[C@H]2[C@H](CCN2S(=O)(=O)c2ccc(OC)cc2)[C@@H](CO)N3C)cc1,u,x,x
O=C(Cc1ccccc1)N1CC[C@@H]2[C@H](CO)Nc3ccc(C#Cc4cccc(F)c4)cc3[C@@H]21,-19*,-27*,7.8*
O=C(Cc1cccnc1)N[C@H]1CC[C@H](CCNS(=O)(=O)c2ccccc2Cl)O[C@H]1CO,9,5,4.4
CN1C(=O)c2cc(NC(=O)c3ccc(Cl)cc3)ccc2OC[C@H]2O[C@H](CC(=O)O)CC[C@H]21,3,0,2.7
C[C@H](O)C#Cc1ccc([C@H]2[C@@H](CO)N3CCCCN(C(=O)c4ccc5c(c4)OCO5)C[C@H]23)cc1,u,x,x
COCC(=O)N1[C@H](CO)[C@@H](c2ccccc2-c2ccc(C)cc2)[C@@H]1C#N,14,14,-0.3

# 2 of the compounds above, with bars between the fields:
SMILES | DUX4 txn inh | DUX4 txn inh difference | DUX4 txn inh control
CO[C@H]1CN(C)C(=O)c2ccc(NC(=O)c3ccc(F)cc3)cc2OC[C@@H](C)N(C)C[C@H]1C | -10 | -19 | 8.6
COc1ccc(-c2ccc3c(c2)[C@H]2[C@H](CCN2S(=O)(=O)c2ccc(OC)cc2)[C@@H](CO)N3C)cc1 | u | x | x

# Sorted by value in DUX4 txn inh difference (ascending): some entries from above.
SMILES,DUX4 txn inh,DUX4 txn inh difference,DUX4 txn inh control
CNC[C@@H]1Oc2cc(Br)ccc2S(=O)(=O)N([C@H](C)CO)C[C@@H]1C,-4,-2,-1.7
O=C(Cc1cccnc1)N[C@H]1CC[C@H](CCNS(=O)(=O)c2ccccc2Cl)O[C@H]1CO,9,5,4.4
COc1ccc2c3c([nH]c2c1)[C@@H](CO)N(C)CC31CN(C(=O)c2ccccc2F)C1,-8,7,-16
COCC(=O)N1[C@H](CO)[C@@H](c2ccccc2-c2ccc(C)cc2)[C@@H]1C#N,14,14,-0.3

# Further results follow:
SMILES,DUX4 txn inh,DUX4 txn inh difference,DUX4 txn inh control
O=C(C[C@H]1C[C@H]2c3cc(NS(=O)(=O)c4ccc(F)cc4)ccc3O[C@H]2[C@@H](CO)O1)NCc1cccnc1,7,3,3.8
C[C@@H]1CN([C@@H](C)CO)C(=O)c2cc(NS(=O)(=O)c3ccccc3)ccc2O[C@H]1CN(C)Cc1ccc(Cl)c(Cl)c1,-3,-3,-0.2
CC(C)C#Cc1ccc([C@@H]2[C@@H](CO)N3CCCCN(C(=O)c4ccc(F)cc4)C[C@H]23)cc1,0,2,-1.5
O=C(N[C@@H]1CC[C@@H](CCNS(=O)(=O)c2ccc(Cl)cc2)O[C@@H]1CO)c1ccccn1,1,-3,4.4
CNC[C@@H]1Oc2c(NC(=O)Nc3ccc(C(F)(F)F)cc3)cccc2C(=O)N([C@@H](C)CO)C[C@@H]1C,3,4,-1.9
CN1CCN(C(=O)C[C@H]2CC[C@@H](NC(=O)c3ccc4c(c3)OCO4)[C@H](CO)O2)CC1,2,1,1.2
C[C@H]1COCc2cnnn2CC[C@H](Cc2ccccc2)C(=O)N1,2,0,2.2
COc1ccccc1CNC(=O)C[C@H]1C[C@H]2c3cc(NS(C)(=O)=O)ccc3O[C@H]2[C@H](CO)O1,0,-4,4.0
CC(C)NC(=O)N1CCCCN2[C@H](C1)[C@H](c1ccc(C#C[C@H](C)O)cc1)[C@@H]2CO,27,36,-9.1
CCCNC(=O)N1C[C@@H]2[C@H](c3ccccc31)[C@@H](CO)N2C(=O)Cc1ccccn1,4,3,1.3
COCCN(C[C@@H]1N[C@@H](CO)[C@@H]1c1ccc(-c2cccnc2)cc1)C(C)=O,1,2,-1.8
C[C@@H]1CCCCO[C@H](CN(C)S(=O)(=O)c2ccccc2)[C@H](C)CN([C@@H](C)CO)C(=O)c2cc(NC(=O)Nc3ccc4c(c3)OCO4)ccc2O1,2,0,2.5
CC(C)CC#Cc1ccc([C@@H]2[C@@H](CO)N3C(=O)CN(C(=O)c4cnccn4)C[C@@H]23)cc1,-2,-7,4.4
CN1CCCCN2[C@H](CO)[C@@H](c3ccc(C#CC4(O)CCCC4)cc3)[C@@H]2C1,17,10,7.5
COc1ccc2c3c(n(C)c2c1)[C@H](CO)NCC31CCN(C(=O)Nc2ccccc2F)CC1,u,x,x
CN(C)C(=O)c1cccc(-c2ccc3c(c2)[C@@H]2[C@@H](CCN2C(=O)c2cnccn2)[C@H](CO)N3)c1,16,14,1.6
CCCNC(=O)N1[C@@H](CO)[C@H](c2ccccc2)C12CN(C(=O)c1cccnc1)C2,10,9,1.3
C[C@H](NC(=O)C[C@H]1CC[C@H]2[C@@H](COC[C@H](O)CN2C(=O)Nc2cc(Cl)cc(Cl)c2)O1)c1ccccc1,u,x,x
CNC[C@@H]1Oc2ccc(NC(=O)Nc3c(C)noc3C)cc2C(=O)N([C@@H](C)CO)C[C@@H]1C,6,6,0.5
CN1[C@H](C(=O)NC2CCCC2)[C@@H](CO)[C@@H]2Cn3c(ccc(-c4cccc(F)c4)c3=O)[C@@H]21,5,-4,8.4
Cc1noc(C)c1S(=O)(=O)N(C)C[C@@H]1Oc2c(NS(=O)(=O)c3cn(C)cn3)cccc2C(=O)N([C@@H](C)CO)C[C@@H]1C,-2,-6,3.3
CCCNC(=O)N1[C@@H](C#N)[C@H](c2ccc(-c3ccccc3F)cc2)[C@@H]1CO,-1,-2,1.1
O=C(C[C@@H]1CC[C@@H]2[C@H](COC[C@H](O)CN2Cc2cccc(F)c2)O1)NCc1ccncc1,7,9,-2.3
CCC(=O)N1C[C@@H](C)[C@@H](OC)CN(C)C(=O)c2ccc(NC(=O)c3ccno3)cc2OC[C@@H]1C,-1,2,-3.4
O=C(C[C@@H]1C[C@H]2c3cc(NC(=O)C4CCOCC4)ccc3O[C@H]2[C@@H](CO)O1)NCCN1CCCCC1,1,-4,4.9

# (further entries)
SMILES,DUX4 txn inh,DUX4 txn inh difference,DUX4 txn inh control
COCCNC(=O)c1cc2c(c(-c3cccc(-c4cccc(F)c4)c3)n1)[C@H](CCO)N(S(=O)C(C)(C)C)C2 (stereo partly drawn),1,-2,3.5
CN(C)CC(=O)N1[C@H](CO)[C@@H](c2ccc(-c3ccc(C(=O)N(C)C)cc3)cc2)[C@@H]1C#N,5,1,4.1
CS(=O)(=O)N1[C@@H]2c3ccc(C4=CCCCC4)c(=O)n3C[C@H]1[C@H](CO)[C@H]2C(=O)N1CCCCC1,1,-2,3.6
C[C@H](NC(=O)N(C)C[C@H]1OCc2ccccc2-c2c(n(C)c3ccccc23)C(=O)N([C@H](C)CO)C[C@H]1C)c1ccccc1,-5,0,-4.3
COc1ccccc1S(=O)(=O)N1CC[C@@H]2[C@H]1c1cc(C#CC3CCCCC3)ccc1N[C@@H]2CO,u,x,x
COCC(=O)N1[C@@H]2Cn3c(ccc(-c4ccccc4)c3=O)[C@H]1[C@@H](C(=O)NCc1ccccn1)[C@@H]2CO,-2,4,-6.1
C[C@@H](NC(=O)C[C@@H]1C[C@H]2c3cc(NC(=O)c4ccc5c(c4)OCO5)ccc3O[C@H]2[C@@H](CO)O1)c1ccccc1,-1,-4,2.8
O=C(C[C@H]1CC[C@H]2[C@@H](COC[C@H](O)CN2Cc2ccccc2F)O1)N[C@@H]1CCN(Cc2ccccc2)C1,-1,-6,4.5
COc1ccccc1C(=O)Nc1ccc2c(c1)C(=O)N(C)[C@H]1CC[C@H](CC(=O)Nc3cc(F)ccc3F)O[C@@H]1CO2,3,3,0.5
COc1cccc(C#Cc2ccc3c(c2)[C@@H]2[C@@H](CCN2C(=O)CC2CC2)[C@@H](CO)N3)c1,6,-5,10
CCC(=O)N(C)C[C@H]1Oc2cc(C#Cc3ccncc3)ccc2S(=O)(=O)N([C@@H](C)CO)C[C@H]1C,1,5,-4.4
Cc1ccccc1S(=O)(=O)Nc1ccc2c(c1)C(=O)N(C)[C@H]1CC[C@@H](CC(=O)O)O[C@H]1CO2,1,1,-0.9
CCCNC(=O)N1[C@@H](C#N)[C@H](c2ccc(-c3cccc(OC)c3)cc2)[C@@H]1CO,-3,-1,-1.5
COc1cccc(CNC(=O)C[C@@H]2CC[C@@H]3[C@@H](COc4ccc(NC(C)=O)cc4C(=O)N3C)O2)c1,0,1,-1.5
CNC[C@H]1Oc2c(NC(=O)C3CCOCC3)cccc2C(=O)N([C@@H](C)CO)C[C@H]1C,3,4,-1.5
C[C@@H]1CCCCO[C@H](CN(C)C(=O)Cc2ccccc2)[C@@H](C)CN([C@H](C)CO)C(=O)c2cc(NC(=O)CCCN(C)C)ccc2O1,-5,-5,0.6
C[C@H](NC(=O)C[C@@H]1CC[C@H]2[C@@H](COC[C@@H](O)CN2C(=O)Nc2cccc(Cl)c2)O1)c1ccccc1,u,x,x
CC(C)CC#Cc1ccc([C@@H]2[C@@H](CO)N3CCCCN(S(=O)(=O)c4ccc(F)cc4)C[C@H]23)cc1,u,x,x
CN(C)CC(=O)Nc1ccc2c(c1)[C@@H]1C[C@H](CC(=O)NCC3CC3)O[C@H](CO)[C@@H]1O2,-1,1,-1.1
O=C(C[C@@H]1CC[C@@H]2[C@H](COC[C@@H](O)CN2Cc2ccccc2)O1)NCc1ccccc1Cl,7,7,-0.2
CC(=O)N1[C@H](CO)[C@H](c2ccccc2)[C@@H]1CN(CC(C)C)C(=O)c1ccccn1,-3,2,-5.3
O=C(c1cccnc1)N1C[C@H]2[C@@H](c3ccccc31)[C@@H](CO)N2C(=O)C1CCOCC1,2,1,0.8
C[C@H](C(=O)N(C)C[C@H]1OCc2ccccc2-c2c(n(C)c3ccccc23)C(=O)N([C@@H](C)CO)C[C@H]1C)c1ccccc1,u,x,x
CCC(=O)N1[C@H](CO)[C@@H]2c3ccccc3N(C(=O)c3cccc(OC)c3)C[C@@H]21,3,4,-0.9
COCC(=O)N1C[C@H](C)[C@H](OC)CN(C)C(=O)c2ccc(NC(=O)c3cc(C)on3)cc2OC[C@H]1C,0,-1,0.6
C[C@@H]1CCCCO[C@@H](CN(C)S(=O)(=O)c2cccs2)[C@H](C)CN([C@@H](C)CO)C(=O)c2cc(NC(=O)c3ccccc3)ccc2O1,1,5,-3.4
CCCNC(=O)N1C[C@H](O)COC[C@@H]2O[C@@H](CC(=O)NCCCN3CCOCC3)CC[C@H]21,-1,-7,6.0
COc1ccc(NC(=O)Nc2ccc3c(c2)[C@H]2C[C@H](CC(=O)N4CCc5ccccc5C4)O[C@@H](CO)[C@H]2O3)cc1,2,4,-2.1

# Of the compounds above, 2 have two or more sulfur atoms.
SMILES,DUX4 txn inh,DUX4 txn inh difference,DUX4 txn inh control
Cc1noc(C)c1S(=O)(=O)N(C)C[C@@H]1Oc2c(NS(=O)(=O)c3cn(C)cn3)cccc2C(=O)N([C@@H](C)CO)C[C@@H]1C,-2,-6,3.3
C[C@@H]1CCCCO[C@@H](CN(C)S(=O)(=O)c2cccs2)[C@H](C)CN([C@@H](C)CO)C(=O)c2cc(NC(=O)c3ccccc3)ccc2O1,1,5,-3.4

# A portion of the library; the hit share may differ from the screen's.
